# VDR inh – blocks the human vitamin D receptor; P11473; VDR-SRC2-3 peptide fluorescence polarization, 2 h; Potency, µM, for the others: max response, negative = inhibition, actives largely listed as inhibitors; 400,000 compounds, 0.93% hits; active means well fitted inhibition curve with a large enough effect; inconclusive means small, poorly fitted or top-dose-only effect, or another doubt; inactive means no such curve, though single readings can be large or run the other way; further: series mostly up to about 120 µM
# Target sequence (P11473 whole entry, looked up): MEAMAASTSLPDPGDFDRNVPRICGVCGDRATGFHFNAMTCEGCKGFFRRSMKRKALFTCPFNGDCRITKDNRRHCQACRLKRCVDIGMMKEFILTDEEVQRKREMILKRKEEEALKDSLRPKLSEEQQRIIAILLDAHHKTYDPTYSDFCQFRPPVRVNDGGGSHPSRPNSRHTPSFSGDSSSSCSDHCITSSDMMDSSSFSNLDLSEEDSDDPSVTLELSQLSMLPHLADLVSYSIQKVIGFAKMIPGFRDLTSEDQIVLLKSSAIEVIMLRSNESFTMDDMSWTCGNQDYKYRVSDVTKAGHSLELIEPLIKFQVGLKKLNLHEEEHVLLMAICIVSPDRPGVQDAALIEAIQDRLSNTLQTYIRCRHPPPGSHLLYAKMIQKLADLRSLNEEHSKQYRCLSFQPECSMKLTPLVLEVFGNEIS
#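 Inhibition of the VDR/SRC2-3 peptide interaction is quantified by fluorescence polarization. Compounds (23 nl, pintool) incubate with the reagents for 2 hours at ambient room temperature.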
# Active calls of the source: *; u = inconclusive; & = joins results of further samples; [ ] = remark or other dose. On the % scale 0 is the no-effect control and ±100 the full control effect; potency means the concentration at half of the fitted maximal effect.
SMILES,VDR inh
C(=N\n1cnnc1)/c1ccc2ncccc2c1,6.8%
O=C(NCc1ccccc1)N1CCNCC1,3.1%
CC(=O)c1c(C)[nH]c(C(=O)COc2ccc3ccc(=O)oc3c2)c1C,5.7%
O=C(Nc1ccccc1)c1ccc2snnc2c1,u
O=C(CCNC(=O)c1ccccc1Cl)NCCc1ccc(Cl)cc1,6.1%
C=CCNC(=O)CN1C(=O)C2C3c4ccccc4C(c4ccccc43)C2C1=O (centres undefined),-2.0%
Cc1ccnc2c1ccc1cccnc12,9.9%
CCc1ccccc1NC(=O)CN(C)C(=O)c1cccc(S(=O)(=O)N2CCCCCC2)c1,-0.2%
O=C(Nc1ccc2c(c1)OCO2)c1c(Cl)nc2sccn12,-5.4%
O=S(Cc1ccccc1)CC(O)(c1ccccc1)c1ccccc1 (centres undefined),-10.4%
CCCCNC(=O)c1onc(CSc2cccc(Cl)c2)c1C(=O)O,-16.2%
COc1ccccc1C=NNC(=O)NN=Cc1ccccc1OC,-7.8%
O=C(CN1CCN(Cc2ccccc2)CC1)Nc1ccccc1,-9.4%
Cc1ccccc1OCC(=O)Nc1sc2c(c1C#N)CC(C)(C)NC2(C)C,19.0%
O=C(COc1ccc(Br)cc1)NCc1cn2ccccc2n1,5.6%
Cc1ccc(OCC(=O)NCCCNC(=O)COc2ccc(C)cc2)cc1,0.9%
O=C(CO/N=C/c1ccc2c(c1)OCO2)Nc1cccc(Br)c1,-1.0%
CC(C)(Oc1ccc(Cl)cc1)C(=O)Nc1ncccn1,-4.2%
O=C(Nc1ccc(N2CCOCC2)nc1)c1ccc(F)cc1,-6.2%
CC(C)C(c1nnnn1CCc1ccccc1)N1CCC(C(N)=O)CC1 (centres undefined),11.3%
Cc1nc(C(=O)NCCCO)cc2c1[nH]c1ccccc12,4.8%
O=[N+]([O-])c1ccc(COc2ccc(Br)cc2CN2CCOCC2)cc1,-2.4%
O=C(Cn1cnc2cc([N+](=O)[O-])ccc2c1=O)NC1CCS(=O)(=O)C1 (centres undefined),13.3%
CC(=O)NC(CCS(C)(=O)=O)C(=O)Nc1cccc(C)c1C (centres undefined),-4.4%
Cn1ccc(C(=O)OCC(=O)Nc2cccc(Cl)c2)n1,8.4%

# Next section.
SMILES,VDR inh
Cc1c(CN2CCCCC2)c(O)n(CCO)c(=O)c1C#N,-6.9%
COCC(=O)N1CCC2(CCCN(C(=O)Nc3cccc(C#N)c3)C2)CC1,-2.4%
O=C(OCCn1c(=S)sc2ccccc21)c1ccccc1,-24.1%
CN(Cc1ccco1)c1cc(-c2cccnc2)ncn1,u
N#C/C(=C\C1=C(N2CCOCC2)C(=C\c2ccccc2)/CC1)C(=O)Nc1ccccc1F,-15.0%
CC1CCCN(S(=O)(=O)c2cc(C(=O)NCc3ccccc3Cl)n(C)c2)C1 (centres undefined),-11.3%
O=C(Nc1ccc2c(c1)OCO2)c1ccc(N2CCCC2)c([N+](=O)[O-])c1,8.9%
COC(=O)c1ccccc1NC(=O)N1CCN(c2ccccc2)CC1,-13.3%
CC(=O)c1cccc(N=C2C(=O)Nc3ccccc32)c1,-9.7%
CC(CCN1C(N(C)C)=NC[C@@H]1C)c1ccccc1 (some centres undefined),5.9%
O=C(Nc1nc2cc3c(cc2s1)OCO3)C1=COCCO1,-6.5%
Cn1c(C(=O)N2CCCC(C(=O)NCCCc3ccccc3)C2)cc2sccc21 (centres undefined),13.8%
O=C(Nc1cc(-c2nc3ccccc3o2)ccc1Cl)c1ccc(Br)o1,-14.6%
COc1cccc(NC(=O)Nc2ccc3c(c2)nc(C)n3C)c1,-16.5%
COc1ccc(C)cc1S(=O)(=O)N(C)CC(=O)N1CCC(C)CC1,10.8%
COCCOCC(O)CN1CCN(c2ccc(C)cc2)CC1 (centres undefined),-12.5%
COc1ccc(S(=O)(=O)N(C)CC(=O)N2CCCC2)cc1Cl,-0.8%
COC(=O)c1ccc(NS(=O)(=O)c2ccc(SC)cc2)cc1,-10.0%
CCN(CC)CCCn1c(SCC(=O)Nc2cccc(F)c2)nnc1-c1ccoc1C,-20.0%
COc1cc(OC)cc(C(=O)NNC(=O)CCC(=O)c2cccs2)c1,-4.1%
CNC(=O)COc1ccc(-c2nn(C)c(=O)c3ccccc23)cc1,-2.5%
O=C(Cc1cccs1)N1CCCC(c2nc3c(nnn3Cc3ccccc3Cl)c(=O)[nH]2)C1 (centres undefined),13.4%
CCCCc1cc(=O)oc2cc(C)cc(OC(C)C(=O)NCc3ccncc3)c12 (centres undefined),-14.7%
COC(=O)[C@H](Cc1ccccc1)NC(=O)Cn1cnc2c(NCc3ccccc3)ncnc21,-15.5%
COc1cc([N+](=O)[O-])ccc1NC(=O)CCCOc1cc(C)ccc1C,-10.1%

# Carrying on.
SMILES,VDR inh
CCCCCn1c(CN2CCN(C)CC2)nc2c1c(=O)n(C)c(=O)n2C,-20.4%
O=C(O)c1ccc(N2C(=O)CC(N3CCN(c4ccc(Cl)cc4)CC3)C2=O)cc1 (centres undefined),-0.1%
COc1ccc(C(CNC(=O)c2ccco2)N2CCCC2)cc1 (centres undefined),-17.1%
Cc1ccc2sc(-c3ccc(NC(=O)c4cc(-n5cnnc5)ccc4Cl)cc3)nc2c1,33.1%[activator]
CC(NC(=O)CCn1ccc2cc(S(=O)(=O)N3CCCC3)ccc21)c1ccccc1 (centres undefined),1.4%
COc1ccc(CC(=O)OC(C)C(=O)NC2CCCCC2C)cc1 (centres undefined),-16.1%
Cc1ccc(CCNS(=O)(=O)c2cc3c(cc2C)n(C)c(=O)c(=O)n3C)cc1,-12.7%
O=C(NCCc1ccccc1)C1(c2cccs2)CCOCC1,6.4%
C=CCn1c(CSCc2ccc(Cl)cc2)nnc1SCC(=O)NCc1ccccc1,2.3%
O=C(O)c1cc2ccccc2c(Cc2cc3ccccc3c(C(=O)O)c2O)c1O (tested in a mixture with another compound),14.1µM*
CC(C)CC1NC(=O)N(CC(=O)Nc2ccc(-c3ccccc3)cc2)C1=O (centres undefined),-5.3%
Cc1cc(Nc2cccc(F)c2)n2ncnc2n1,-11.6%
CC(C)C[C@H](NC(=O)[C@@H]1CCCN1C(=O)[C@H](Cc1ccccc1)NC(=O)[C@H](C)NC(=O)[C@H](CCC(=O)O)NC(=O)[C@H](C)NC(=O)[C@H](CO)NC(=O)[C@H](CCC(=O)O)NC(=O)[C@H](CC(=O)O)NC(=O)[C@H](CCC(=O)O)NC(=O)[C@H](C)NC(=O)CNC(=O)[C@H](CC(N)=O)NC(=O)[C@@H]1CCCN1C(=O)[C@H](Cc1ccc(O)cc1)NC(=O)[C@@H](NC(=O)[C@H](CCCCN)NC(=O)[C@@H](NC(=O)[C@@H]1CCCN1C(=O)[C@@H](N)CCCNC(=N)N)C(C)C)C(C)C)C(=O)N[C@@H](CCC(=O)O)C(=O)N[C@@H](Cc1ccccc1)C(=O)O,-3.7%
O=C(CSc1nnc(NC2CC2)s1)Nc1ccc(N2CCOCC2)cc1,-2.1%
Cc1ccc([N+](=O)[O-])cc1N=Cc1ccc(Br)s1,12.5%
COc1ccccc1C1(CC(=O)O)CCOC(C(C)C)C1 (centres undefined),-6.7%
N[C@H](Cn1ccc(=O)n(Cc2ccccc2C(=O)O)c1=O)C(=O)O,1.3%
O=C(c1cccc(F)c1)N1CCC[C@@]2(CCN(Cc3ccccc3)C2)C1,8.4%
COc1ccccc1NC(=O)Nc1sccc1-c1nc2ccccc2s1,u
Cc1cc(C(F)(F)F)nn1Cc1ccc(C(=O)NCc2ccco2)o1,-17.9%
COc1ccccc1OCC(=O)NCc1n[nH]c(=O)c2ccccc12,-10.9%
O=C(CCc1ccccc1)NCc1ccc2c(c1)CCN2C(=O)c1ccc(Cl)cc1,-2.0%
O=[N+]([O-])c1cccc(/C=N/NC2=NCCCCC2)c1,-9.8%
O=C(COC(=O)Cc1ccsc1)Nc1ccc(Cl)cn1,-11.3%
Cc1ccc(Nc2nc(N)c3ccccc3n2)cc1Cl,30.8%

# Continuation.
SMILES,VDR inh
Cc1nc2ccc(Cl)cc2[nH]1,14.3%
COc1cccc(C(=O)NCC(=O)N/N=C/c2cccs2)c1,-7.2%
C/C(=C/C(=O)NCc1ccccc1)C(=O)O,5.3%
CCOc1cc(/C=C\c2[nH]c(=O)[nH]c(=O)c2[N+](=O)[O-])ccc1OC(C)CC (centres undefined),11.2µM*
Cc1ccccc1NC(=O)NC1(C(=O)N2CCN(C)CC2)CCCCC1,-6.1%
CC1CCN(S(=O)(=O)c2ccc3c(c2)N(CC(=O)NCc2ccccc2Cl)C(=O)CO3)CC1,10.5%
Cc1cc(N=CC2=C(O)CC(C)(C)CC2=O)no1,-3.8%
C[n+]1ccc(/C=N/Nc2nc(Cl)c(C#N)c(Cl)c2Cl)cc1,-1.9%
CN(C(=O)COC(=O)CCc1c[nH]c2ccccc12)C(c1ccccc1)c1ccccc1,-15.7%
CCOC(=O)/C(=N\Nc1cc(Cl)ccc1Cl)N1CCN(CC)CC1,-10.5%
Cc1cc(C)nc(SC(C)C(=O)Nc2ccc(S(N)(=O)=O)cc2)n1 (centres undefined),17.2%
COc1cccc(C(=O)NCC(c2ccco2)N2CCOCC2)c1 (centres undefined),-12.8%
Cn1c(=O)c2c(nc(SCC(=O)Nc3ccccc3)n2Cc2ccccc2F)n(C)c1=O,-4.8%
CC12CCC(=O)N1C(C(=O)NCCc1ccc(F)cc1)CS2 (centres undefined),10.1%
CC(=O)Nc1c(Cl)cnn(-c2ccccc2)c1=O,5.6%
O=C1OC(c2ccccc2)=C/C1=C/N1CCCCC1,2.7%
Nc1nonc1C(=O)N/N=C/c1cc2c(cc1Br)OCO2,-4.8%
CSc1ccc(/C=C(/Sc2nnc(-c3ccccc3)o2)C(=O)O)cc1,3.6%
Cc1ncc([N+](=O)[O-])n1CC(=O)Nc1ccc(OC(F)(F)Cl)cc1,23.2%
COc1ccccc1CNC(=O)C(C)Sc1ccc(C)cc1 (centres undefined),-24.0%
Cc1nn(C)c(C(=O)NNC(=S)NCC(C)C)c1Cl,-19.3%
COc1ccccc1Nc1nn2c(=O)c3ccc(C(=O)NCCC4=CCCCC4)cc3nc2s1,12.0%
COc1ccc(Cl)cc1NC(=S)Nc1cccnc1,22.0%
Cc1cc(C(=O)O)ccc1-c1ccc(/C=C2\NC(=O)N(Cc3ccccc3Cl)C2=O)o1,u
COc1cccc(OC)c1Oc1ccc(C(F)(F)F)cn1,-4.7%

# 3 compounds from above, sorted by their value in VDR inh, smallest number first:
compound	VDR inh
CN(C(=O)COC(=O)CCc1c[nH]c2ccccc12)C(c1ccccc1)c1ccccc1	-15.7%
COc1cccc(OC)c1Oc1ccc(C(F)(F)F)cn1	-4.7%
CC1CCN(S(=O)(=O)c2ccc3c(c2)N(CC(=O)NCc2ccccc2Cl)C(=O)CO3)CC1	10.5%

# Structures above that contain a nitro group on carbon:
SMILES,VDR inh
O=[N+]([O-])c1ccc(COc2ccc(Br)cc2CN2CCOCC2)cc1,-2.4%
O=C(Cn1cnc2cc([N+](=O)[O-])ccc2c1=O)NC1CCS(=O)(=O)C1 (centres undefined),13.3%
O=C(Nc1ccc2c(c1)OCO2)c1ccc(N2CCCC2)c([N+](=O)[O-])c1,8.9%
COc1cc([N+](=O)[O-])ccc1NC(=O)CCCOc1cc(C)ccc1C,-10.1%
Cc1ccc([N+](=O)[O-])cc1N=Cc1ccc(Br)s1,12.5%
O=[N+]([O-])c1cccc(/C=N/NC2=NCCCCC2)c1,-9.8%
CCOc1cc(/C=C\c2[nH]c(=O)[nH]c(=O)c2[N+](=O)[O-])ccc1OC(C)CC (centres undefined),11.2µM*
Cc1ncc([N+](=O)[O-])n1CC(=O)Nc1ccc(OC(F)(F)Cl)cc1,23.2%

# Later entries:
SMILES,VDR inh
N#CCCCS(=O)(=O)c1nnnn1-c1ccc(Br)cc1,u
COC(=O)c1ccccc1CSc1nsc(/C=C/N(C)C)c1C#N,u
CCn1ncc([N+](=O)[O-])c1C(=O)N1CCCC1,1.5%
COC(=O)C1=C(C)N(Cc2ccccc2)C(=NCc2ccco2)N[C@H]1c1cccc(F)c1,-5.0%
O=c1c(-c2ccc(F)cc2)[n+]([O-])c2ccccc2n1OCc1ccccn1,u
COC(=O)c1scc(C)c1NC(=O)C1CCCCC1,13.5%
Cc1ccc(S(=O)(=O)N2CCN(C(=O)CSc3nc4ccccc4o3)C2)cc1,-6.8%
CCOCCOC(=O)C1=C(C)N(C)C(=O)NC1c1ccccc1F (centres undefined),-3.3%
O=C(CC1c2ccccc2Oc2ccccc21)Nc1ccccc1C(F)(F)F,14.7%
NS(=O)(=O)c1ccc(NC(=O)/C(=C/c2ccncc2)NC(=O)c2ccccc2)cc1,-8.8%
C=CCn1c(COc2ccc(CC)cc2)nnc1SC/C(O)=C(\C#N)c1nc2ccccc2[nH]1,-2.9%
Cc1nn(-c2ccccc2)c(Cl)c1C(=O)NCC1CCCO1 (centres undefined),-17.4%
CCc1c(C)nc(SCC(=O)Nc2ccc(Br)cc2)[nH]c1=O,7.7%
COc1ccc(NC(=O)CCc2c(C)nc3c(c2C)c(=O)n(C)c(=O)n3C)cc1OC,-12.6%
CC(=O)c1cccc(NS(=O)(=O)c2cc3c(cc2C)N(C(C)=O)CCO3)c1,-6.5%&3.7%
CCOc1ccc(CN2CCN(C(=O)c3ccccc3)CC2)cc1,7.3%
COc1ccc(C(=O)Nc2ccc(Cl)c(S(=O)(=O)N3CCOCC3)c2)cc1,6.0%
Cc1ccc(C(C(=O)NC2CCCC2)N2CCCCC2)cc1 (centres undefined),-1.5%
CCN(C(=O)COC(=O)c1cc(S(=O)(=O)N2CCc3ccccc32)ccc1OC)C1CCS(=O)(=O)C1 (centres undefined),5.0%
Cc1cc(SCC(=O)NCC(c2cccs2)N2CCOCC2)c(C)cc1Br (centres undefined),-11.2%
CCCC1C(c2ccc(OC)cc2)C(C#N)(C#N)C2(C#N)CC1(N)NC2=O (centres undefined),-8.9%
COc1ccc(NC(=O)CSc2nnc(-c3nonc3NC(C)=O)n2-c2ccccc2)cc1,0.0%
CCOC(=O)Cc1csc(NC(=O)c2cccc(OC)c2)n1,16.5%

# This is a subset; rates above refer to the full screens.
